# Screening results deposited in PubChem BioAssay by several laboratories.
# RGS16-Gao HTS = RGS16-Galphao interaction regulator (human) | bead-based flow cytometry RGS16-Galphao binding, fluorescence; actives lie on both sides | binding response (% of control), % at 10 µM | AID 1441 | 220,000 tested, 0.38% active;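 active means below 25% or above 175%, edge rows of some plates excepted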;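 further: Galphao activated by GDP with aluminum fluoride before binding; 100% = wells without compound and 0% = beads without RGS; some results beyond the cut were filed as inactive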
# Target sequence (O15492 whole entry, looked up): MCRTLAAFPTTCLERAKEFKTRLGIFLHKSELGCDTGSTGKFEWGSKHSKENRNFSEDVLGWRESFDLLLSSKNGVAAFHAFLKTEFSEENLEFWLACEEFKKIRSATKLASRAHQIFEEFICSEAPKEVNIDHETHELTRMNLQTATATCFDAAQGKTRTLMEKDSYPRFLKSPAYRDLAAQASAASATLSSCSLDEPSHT
# Target sequence (P09471 whole entry, looked up): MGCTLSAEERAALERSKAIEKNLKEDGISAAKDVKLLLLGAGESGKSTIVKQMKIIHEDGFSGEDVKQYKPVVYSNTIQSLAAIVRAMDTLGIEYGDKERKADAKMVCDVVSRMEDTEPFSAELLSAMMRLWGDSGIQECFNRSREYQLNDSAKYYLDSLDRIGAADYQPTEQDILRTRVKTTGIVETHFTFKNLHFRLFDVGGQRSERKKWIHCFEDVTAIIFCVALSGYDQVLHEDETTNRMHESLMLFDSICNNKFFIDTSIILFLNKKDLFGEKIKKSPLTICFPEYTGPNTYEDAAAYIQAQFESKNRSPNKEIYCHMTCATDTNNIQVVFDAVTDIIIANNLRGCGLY
# GALR2 agonist = activates the human galanin receptor 2. O43603. GALR2-expressing cells, agonist activation read-out. activation, %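 (tested at 5 µM)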. 140,000 tested, 0.48% active;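 active means above mean plus 3 SD of all compounds, about 5% in these data, not always enough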;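 further: 0% = vehicle buffer wells and 100% = reference agonist at full effect; tested in CHO reporter cells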
# Target sequence (O43603 whole entry, looked up): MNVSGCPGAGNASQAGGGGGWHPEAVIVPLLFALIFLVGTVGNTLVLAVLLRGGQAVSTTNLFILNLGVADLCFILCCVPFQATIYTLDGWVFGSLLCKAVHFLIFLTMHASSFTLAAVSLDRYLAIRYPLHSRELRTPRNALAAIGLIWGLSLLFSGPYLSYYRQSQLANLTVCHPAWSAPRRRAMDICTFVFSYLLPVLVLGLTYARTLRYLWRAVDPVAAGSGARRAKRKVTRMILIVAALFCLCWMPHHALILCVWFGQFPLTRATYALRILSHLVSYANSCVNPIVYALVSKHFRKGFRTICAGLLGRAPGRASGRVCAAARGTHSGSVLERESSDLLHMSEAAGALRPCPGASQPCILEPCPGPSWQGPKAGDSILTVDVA
# INS promoter inh = TRM-6 insulin promoter activity inhibition | TRM-6 cells (human fetal islet line), insulin promoter-eGFP reporter, imaging; reporter expression induced with tamoxifen | inhibition, % at 2 µM | 130,000 tested, 0.9% active;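 active means inhibition above the mean plus 3 SD, with well images judged a real hit on visual review, cut at about 60% in these data, passing the limit was not always enough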
# HSV replic up = increases HSV replication in cells. HSV replication augmentation in cells, fold increase. 220,000 tested, 0.005% active. AID 1956. maximum fold increase;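 active means peak rise of 1.5-fold or more in the series; tested in PC3 cells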;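 further: first round at 10 µM; read as green reporter fluorescence; hits show the peak of a series up to 25 µM; 1 = signal of infected wells without compound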
# PKD1 kinase inh = blocks activity of human protein kinase D1 | inhibition, %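 (about 10 µM by stock and volumes)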 | PKD1 kinase fluorescence polarization assay | Q15139 | 200,000 tested, 0.056% active;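 active means inhibition of 50% or more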;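 further: controls were vehicle for no effect and a reference inhibitor for full effect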
# INS promoter inh cell count = recorded beside INS promoter inh, whose call it bears; normalized cell count, %; measured here: cell count, toxicity; reference of the scale not given here;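 cells exposed to compound for 48 h; stained nuclei by imaging scaled within each plate; lower means fewer cells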
# HSV replic up primary fold = recorded beside HSV replic up, whose call it bears; fold increase; compound at 10 µM; measured here: primary screen fold increase 10 uM; tested in PC3 cells;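 GFP signal in the first replicate; 1 = infected wells without compound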
# Starred values were filed as active, the others as inactive; i = inactive; / = no result given.
SMILES,RGS16-Gao HTS,GALR2 agonist,INS promoter inh,INS promoter inh cell count,HSV replic up,HSV replic up primary fold,PKD1 kinase inh
COc1ccc(C(=O)N(c2ccc(OC)cc2)S(=O)(=O)c2cccs2)cc1,44,-2.0,31,130,i,1.1,-4
COc1cccc(CNn2cnnc2)c1O,102,/,40,104,i,0.99,3
COCCN(C(=O)C(C)C)c1nnc(-c2ccc(C)cc2)s1,82,-1.7,6,231,i,0.92,-6
O=S(=O)(c1cccs1)n1nnc2ccccc21,100,-1.3,/,/,i,0.97,-11
CN(C)c1ccc(/C=C/C(=O)c2ccc3c(c2)OCCO3)cc1[N+](=O)[O-],107,-0.8,33,126,i,0.75,-7
CCOC(=O)c1c(C)c(C(=O)N2CCN(c3ccc(F)cc3)CC2)c(C)n1C,107,/,15,122,i,1.1,0
COc1ccc(C)cc1C(=O)CCC(=O)NC1CCCCC1,101,/,56,101,i,0.93,-1
CC(C)(C)OC(=O)N1CCC[C@H]1C(=O)NCC1CCC(C(=O)O)CC1 (stereo partly drawn),101,-0.4,26,77,i,0.92,-8
NS(=O)(=O)c1ccc(CCNCC(=O)NC2CC2)cc1,94,/,/,/,i,1.1,/
CCO[C@@H]1OC(C(=O)N2CCOCC2)=C[C@H](c2ccc(Br)cc2)[C@H]1CCCO,101,/,/,/,i,0.85,-6
CCCNc1c(NC(C)=O)c(=O)oc2ccccc12,119,-0.9,0,75,i,0.93,5
COc1ccc(OC)c2c(N)c(C#N)c(C(F)(F)C(F)(F)F)nc12,96,-0.1,-3,129,i,1,2
CCC(=O)Oc1oc(-c2ccccc2)nc1C=Nc1ccccc1OC,101,-1.4,-220,79,i,0.95,-3
COC(=O)c1sccc1-n1cccc1C(=O)N1CCOCC1,98,-2.6,14,108,i,0.97,0
CCC(=O)N1CCN=C1SCc1ccccc1Cl,104,0.0,/,/,i,0.94,7
CCc1sc(N(C(=O)Cc2ccccc2)c2ccccc2)nc1-c1ccccc1,97,-1.9,0,96,i,1.1,-4
O=C(O)CC1(CC(=O)N2CCN(CCO)CC2)CCCC1,100,/,/,/,i,0.95,2
O=S(=O)(CCSc1nc2ccccc2s1)c1nc2ccccc2s1,103,-1.7,50,71,i,0.47,-8
Cc1nn(CCc2n[nH]c(=S)n2C2CCCCC2)c(C)c1Br,92,-1.4,/,/,i,0.82,-10
COc1ccc(C2=NOC(C(=O)Nc3ccc(C(C)=O)cc3)C2)cc1OC (stereo not drawn),107,-1.2,/,/,i,0.97,-5
Fc1ccc(CN2CCSCC2)cc1Br,83,-0.7,13,130,i,1,4
Clc1ccc(CNCCC2=CCCCC2)cc1,101,-1.0,0,158,i,0.93,3
OC(CN1CCN(Cc2ccccc2)CC1)c1ccccc1 (stereo not drawn),106,/,/,/,i,1,5
O=C(OCc1ccccc1)c1cccnc1Cl,107,/,-10,102,i,0.91,-4
Cc1ccc(C2C(C(=O)O)c3ccccc3C(=O)N2C)o1 (stereo not drawn),91,-1.1,15,69,i,0.87,-2
Cc1cc(C)c2c(N)c(S(=O)c3ccc(C(C)(C)C)cc3)sc2n1 (stereo not drawn),93,-3.5,-12,117,i,0.97,3
Cc1nn(C)cc1-c1cc(C(=O)O)c2ccccc2n1,105,/,-19,116,i,0.97,-3
c1ccc(OCCn2cnc3ccccc32)cc1,101,-1.6,-152,76,i,0.88,-10
CC(C)C(=O)Nc1ccc(C(=O)NNC(=O)c2cccs2)cc1,74,-1.6,-19,155,i,0.85,-8
COc1cccc(C2C(C(=O)c3cccs3)=C(O)C(=O)N2CCN(C)C)c1OC (stereo not drawn),103,-1.2,-26,103,i,1.1,-3
CCOc1cc(/C=N/NC(=O)CSc2nncn2C)ccc1OCc1ccccc1,131,-0.4,3,75,i,0.91,-6
Nc1nnc(COc2ccc(Br)cc2Br)s1,100,-2.0,21,66,i,1.2,2
O=C(Nc1cccc2ccccc12)NC1CCS(=O)(=O)C1 (stereo not drawn),116,/,/,/,i,1,1
CC(C)CCN1CCN(C/C=C/c2ccco2)CC1CCO (stereo not drawn),105,/,/,/,i,1.1,-1
Cc1ccc(C)c(CS(=O)(=O)c2cn(CC(=O)N3CCCCC3)c3ccccc23)c1,101,0.2,/,/,i,1.1,-2
COC(=O)/C=C1\C(=O)N(c2nc3ccccc3s2)C(=S)N1c1ccc(F)cc1,91,-0.6,12,120,i,0.91,3
CCC(/C=N/NC(=O)C(N)=O)CC,107,-1.2,-27,106,i,0.94,-2
Cc1ccc2cc(C(c3nnnn3C(C)(C)C)N3CCCCCC3)c(=O)[nH]c2c1 (stereo not drawn),101,-1.4,-14,168,i,0.94,-5
CC(C)OCCCNC(=O)CCc1nc(-c2ccccc2)no1,97,-1.0,48,108,i,0.94,-2
C=CCN1C(=O)C2C(C(=O)NC3CCCCC3)C3C=CC2(O3)C1C(=O)NC1CCCC1 (stereo not drawn),115,-2.6,-6,121,i,0.95,-1
COc1ccc(NC(=O)CO/N=C(\C)c2cccs2)cc1,92,/,-44,93,i,0.98,5
CCCC(=O)Nc1nnc(SCC(=O)NCc2ccco2)s1,101,-0.3,/,/,i,1.1,3
Cc1cc(C)nc(SCc2nnc(SCC(=O)Nc3nccs3)n2C)n1,98,-2.8,-7,114,i,1.1,-10
Cc1cc(C)n(-c2cccc(Cl)c2)c(=O)c1C#N,100,-1.9,/,/,i,0.92,-9
CC(C)CCN1CCN(Cc2ccon2)CC1CCO (stereo not drawn),98,/,/,/,i,1.2,5
O=c1[nH]c(N/N=C/c2ccc(O)cc2)nc2ccccc12,87,0.3,-7,95,i,1.1,-2
COc1ccc(NC(=O)C(Sc2ccccc2)c2ccccc2)c(OC)c1 (stereo not drawn),47,-1.9,-26,124,i,1.1,-5
CCOC(=O)C(C)/C(C)=N/NC(N)=S (stereo not drawn),95,-0.8,-25,130,i,1.1,3
CCN(CC)S(=O)(=O)c1ccc(N2CCCC2)c(NC(=O)c2ccccc2OC)c1,103,/,/,/,i,0.91,/
N#C/C(=C(/O)CSc1ccccc1C(=O)O)c1nc2ccccc2s1,101,-2.3,/,/,i,1,-1
O=C(Cn1[nH]c(=O)c2ccccc2c1=O)Nc1cccnc1,100,/,/,/,i,0.86,-4
CC(=O)Nc1nc(-c2ccccc2)nc(-c2ccccc2OC(C)=O)n1,104,-1.0,-6,154,i,0.71,-2
CN(C)c1ccc(C2N(c3ccc(F)cc3)C(=O)C3CCCN32)cc1 (stereo not drawn),97,-3.4,/,/,i,1.1,-1
CCN(CC)CCCN1C(=O)CSC1c1ccc([N+](=O)[O-])cc1 (stereo not drawn),114,/,/,/,i,0.98,0
Cc1ccc(C(C(=O)NC2CCCCC2)N2CCN(C(=O)c3ccco3)CC2)cc1 (stereo not drawn),103,-0.6,-55,189,i,0.93,0
Cc1cc(C)c2nc(SCC(=O)N(C)C3CCS(=O)(=O)C3)cc(C)c2c1 (stereo not drawn),99,/,-100,64,i,0.79,-10
Cc1cc(C)cc(NC(=O)CSc2ccc(-c3cccs3)nn2)c1,100,-0.6,/,/,i,1.1,-4
COC(=O)c1[nH]c2ccccc2c1NC(=O)CNC1CCCCC1,101,-2.7,/,/,i,0.78,-16
O=S(=O)(Nc1nc(SCc2ccc(Cl)cc2)n[nH]1)c1ccc(F)cc1,97,/,/,/,i,0.99,/
OCCNc1nc2ccccc2n1CC(O)c1ccccc1 (stereo not drawn),93,/,14,136,i,1.2,6

# Later entries:
SMILES,RGS16-Gao HTS,GALR2 agonist,INS promoter inh,INS promoter inh cell count,HSV replic up,HSV replic up primary fold,PKD1 kinase inh
CCOc1cccc2sc(N(CCN(CC)CC)C(=O)c3cccc([N+](=O)[O-])c3)nc12,98,/,/,/,i,0.97,3
CC(C(=O)Nc1cccc(S(=O)(=O)N2CCOCC2)c1)N1CCN(c2ccc(F)cc2)CC1 (stereo not drawn),99,/,-26,125,i,0.9,-6
COc1ccc(-n2nc(C(=O)Nc3ccc4c(c3)OCO4)c3ccccc3c2=O)c(OC)c1,104,-1.6,/,/,i,0.92,-26
C/C(=N\O)C(=O)C(CN1CCCCC1)CN1CCCCC1,176,-0.1,-8,189,i,0.91,-7
O=C(COc1ccc(C(=S)N2CCC(Cc3ccccc3)CC2)cc1)N1CCOCC1,101,/,/,/,i,1,-5
Cc1ccc(-c2nnn(CC(=O)N3CCCCC3)n2)c(-n2cnnn2)c1,97,-3.7,7,104,i,1,-6
CN(C)c1nc2ccccc2n(C)c1=O,96,/,/,/,i,0.94,-2
C=CCn1c(SCc2nc3sc(C(=O)O)c(C)c3c(=O)[nH]2)nnc1-c1ccc(F)cc1,96,/,6,38,i,0.97,-2
CSc1ccc(CN(C)Cc2nc3ccccc3c(=O)[nH]2)cc1,102,/,/,/,i,1,/
CC(C(=O)c1ccc(Br)cc1)[n+]1cccc(NC(=O)c2ccccc2)c1 (stereo not drawn),114,-1.2,28,69,i,0.97,-5
O=C(c1cnn2cccnc12)N1CCN(Cc2ccc3c(c2)OCO3)CC1,111,-8.2,0,104,i,0.76,-4
Cc1noc(C)c1COC(=O)c1cc(F)c(F)cc1Cl,91,-1.5,-6,125,i,0.96,0
COc1ccc(-c2nsc(SCC(=O)NCc3ccc4c(c3)OCO4)n2)cc1,105,0.3,/,/,i,1.1,1
COc1ccc(S(=O)(=O)N(CC(=O)N/N=C/c2cccs2)c2cc(C)cc(C)c2)cc1OC,105,-2.2,-33,140,i,1,1
COc1ccc(/C=N/NC(=S)Nc2ccccc2)cc1COc1ccc(Br)cc1,98,/,/,/,i,0.95,/
CN1C(=O)/C(=C/C=C2/CCCN2C)N(C)C1=S,107,/,/,/,i,1.1,3
COc1cc(COc2ccc3c(C)c(Cc4ccccc4)c(=O)oc3c2C)cc(OC)c1OC,105,-0.5,47,65,i,1.1,6
Cc1ccc2cc3cc(C(=O)N4CCCCCC4)oc3nc2c1,100,0.2,-183,233,/,/,-7
O=C(NCc1ccccc1)c1ccc(Br)o1,108,-0.5,35,134,i,0.9,4
CC(=O)c1c(N=CN(C)C)nc(C)nc1-c1ccccc1,101,-1.3,9,108,/,/,-10
CCN(CC)S(=O)(=O)c1ccc(Cc2ncc(C(F)(F)F)cc2Cl)s1,102,-2.1,-25,93,i,1,4
CCc1nccn1S(=O)(=O)c1cc(C)c(OC)cc1C,113,-2.6,-11,65,i,1.1,-4
CCCOc1ccc(C(=O)OCC(=O)c2c(N)n(C)c(=O)n(C)c2=O)cc1OCC,96,/,/,/,i,0.96,-7
CCOc1ccccc1NC(=O)Cn1c(=O)sc2ccccc21,103,/,/,/,i,0.97,-4
O=C(Nc1cccc([N+](=O)[O-])c1)C1C2/C=C\CCCCC21 (stereo not drawn),97,/,0,111,i,0.87,2
Cc1ccc(-n2c(C)nn(-c3ncc(C(F)(F)F)cc3Cl)c2=O)cc1,115,-2.2,64,66,i,0.7,-4
Cc1nc2cc(NC(=O)N3CCCCC3)ccc2n1C,106,-0.8,-38,135,i,0.8,2
Nc1nc2n(n1)C(c1ccc(F)cc1)CC(c1ccc(F)cc1)N2 (stereo not drawn),71,0.4,-50,126,i,1.2,-4
O=C(Oc1ccccc1N1C(=O)CCC1=O)c1ccco1,104,-2.2,42,111,i,0.98,-7
